Source: PubChem BioAssay (Fisher Drug Discovery Resource Center)
NPYLR7 ag = agonists of mosquito NPYLR7 receptor, primary screen, cell-based, Aedes aegypti, calcium fluorescence, mosquito biting behavior | activation, % at 10 µM | Aedes aegypti neuropeptide Y-like receptor 7 (NPYLR7) | 270,000 compounds, 0.15% hits | HEK293T NPYLR7/Galpha15, GCaMP6s calcium fluorescence; in the data active = activation above about 40%;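 note: 0% = vehicle and 100% = reference agonist at the receptor; some compounds past the cut are filed as inactive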
NPYLR7 ag max-min = second read-out of NPYLR7 ag, no call of its own (marks repeat the call); activation, %; measured here: Max-Min RFU normalised activation; some inactives read as strong as hits;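 span of the calcium signal over five minutes; 0% = vehicle and 100% = native peptide agonist; compound fluorescence can raise it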
Active calls of the source: *; & = joins results of further samples.

SMILES | NPYLR7 ag | NPYLR7 ag max-min
Cc1ccccc1C(C)(C)CNC(=O)C(=O)N(C)c1cccc(C#N)c1 | -5 | 19
Cc1ccnc(CC(C)N(C)C(=O)c2nccc3ccccc23)c1 (stereo unspecified) | -2 | -5
CC(C)CN(CC(=O)N(CCc1c[nH]c2ccccc12)Cc1ccc(C(F)(F)F)cc1)C(=O)C1CCC1 | 21 | 19
Cc1cccc(CN2CCC(N3CCC(C(=O)NC4CCOC4)CC3)CC2)n1 (stereo unspecified) | 2 | -1
C=c1onc(-c2ccccc2)c1=c1[nH]/c(=C\c2ccc(OC(C)=O)c(OC)c2)c(=O)o1 | 0 | -2
COc1ccc(C(=O)Oc2ccc(-c3nc4ccc(Br)cn4c3NC(C)(C)CC(C)(C)C)cc2)cc1 | -3&-13 | 5&1
Cc1sc(-n2c(C)ccc2C)c(C(=O)O)c1C | 7 | 3
CC(=O)Nc1nnc(CC(=O)N/N=C\c2c[nH]c3ccccc23)s1 | -4 | -3
CCCCN(CC(=O)N1CC(=O)N(c2cccc(C)c2)C1)C(=O)Nc1ccccc1OCC | 13 | 11
COc1cc(-c2nc(CN3CCOCC3)c(C)o2)cc2c1OCO2 | 5 | 3
COc1cc(/C=C/C(=O)NC2CCC(C)CC2)cc(Cl)c1OC(C)C (stereo unspecified) | -3 | -6
COc1ccc(NC(=S)NC2CC3CCC2C3)cc1OC (stereo unspecified) | 6 | 4
Cc1c(S(=O)(=O)CCNC(=O)NCCc2ccccc2)c2ccccc2n1Cc1ccccc1 | 3 | 6
Cc1csc(=O)n1CC(=O)N(Cc1ccco1)Cc1cccs1 | -4 | -5
O=C(O)c1cc2n(n1)CCCN(C(=O)c1c(F)ccc(F)c1F)C2 | 9 | 6
COc1ccc(C2CC(=O)C3C(=Nc4ccccc4NC3c3ccc(OC)c(O)c3)C2)cc1 (stereo unspecified) | 2 | 0
COc1ccccc1NC(=O)N(Cc1ccc(OS(=O)(=O)C(C)C)cc1)Cc1ccco1 | 27 | 29
CCN(CC)c1ccc(NC(=O)c2cc3ccccc3oc2=O)cc1 | 5 | -6
Cc1ccc(NC(=O)CSc2ncc(S(=O)(=O)c3ccc(C(C)(C)C)cc3)c(=O)[nH]2)cc1 | -3 | -6
O=C(CN1CCC(c2ccccc2)CC1)Nc1ccc2c(c1)OCCCO2 | -1 | 1
CC(=O)NC(=S)NNC(=O)c1ccccc1OCc1ccccc1 | -2 | -3
CC1CN(c2cc(Oc3cccc(F)c3)ncn2)CCN1Cc1cccc(C(F)(F)F)c1 (stereo unspecified) | 5 | 7
CCN(CC)C(=O)C1C(=O)NC2(C)CC1c1ccccc1O2 (stereo unspecified) | 2 | -3
CCc1ncc(C(=O)N2CCn3nc(C(=O)Nc4ccccc4)cc3C2)cn1 | 6 | 22

In the list so far, these have nitrogen in an aromatic ring:
SMILES | NPYLR7 ag | NPYLR7 ag max-min
Cc1ccnc(CC(C)N(C)C(=O)c2nccc3ccccc23)c1 (stereo unspecified) | -2 | -5
CC(C)CN(CC(=O)N(CCc1c[nH]c2ccccc12)Cc1ccc(C(F)(F)F)cc1)C(=O)C1CCC1 | 21 | 19
Cc1cccc(CN2CCC(N3CCC(C(=O)NC4CCOC4)CC3)CC2)n1 (stereo unspecified) | 2 | -1
C=c1onc(-c2ccccc2)c1=c1[nH]/c(=C\c2ccc(OC(C)=O)c(OC)c2)c(=O)o1 | 0 | -2
COc1ccc(C(=O)Oc2ccc(-c3nc4ccc(Br)cn4c3NC(C)(C)CC(C)(C)C)cc2)cc1 | -3&-13 | 5&1
Cc1sc(-n2c(C)ccc2C)c(C(=O)O)c1C | 7 | 3
CC(=O)Nc1nnc(CC(=O)N/N=C\c2c[nH]c3ccccc23)s1 | -4 | -3
COc1cc(-c2nc(CN3CCOCC3)c(C)o2)cc2c1OCO2 | 5 | 3
Cc1c(S(=O)(=O)CCNC(=O)NCCc2ccccc2)c2ccccc2n1Cc1ccccc1 | 3 | 6
Cc1csc(=O)n1CC(=O)N(Cc1ccco1)Cc1cccs1 | -4 | -5
O=C(O)c1cc2n(n1)CCCN(C(=O)c1c(F)ccc(F)c1F)C2 | 9 | 6
Cc1ccc(NC(=O)CSc2ncc(S(=O)(=O)c3ccc(C(C)(C)C)cc3)c(=O)[nH]2)cc1 | -3 | -6
CC1CN(c2cc(Oc3cccc(F)c3)ncn2)CCN1Cc1cccc(C(F)(F)F)c1 (stereo unspecified) | 5 | 7
CCc1ncc(C(=O)N2CCn3nc(C(=O)Nc4ccccc4)cc3C2)cn1 | 6 | 22

Remaining list, next part.
SMILES | NPYLR7 ag | NPYLR7 ag max-min
COc1cccc(-c2ccc(NC(=O)C3CCCN(Cc4ccc(CO)o4)C3)cc2)c1 (stereo unspecified) | -9 | -11
C=CCOc1ccccc1CN(CC)C(=O)c1c(C)n[nH]c1C | 0 | 0
Cc1ccc(S(=O)(=O)NC(=O)C2(C)CCN2C(=O)Cc2ccccc2Cl)nc1 (stereo unspecified) | 4 | 1
c1ccc(-c2cnnc(NCC(c3ccccn3)N3CCOCC3)n2)cc1 (stereo unspecified) | -1 | -1
COC(=O)CC(=O)N1CCN(C2c3ccccc3CCc3ccccc32)CC1 | 23 | 9
COc1ccc(CCNC(=O)CCc2cc3c(n2-c2ccc(OC)cc2)-c2ccccc2CC3)cc1 | 2 | 3
COc1ccc(-n2cccn2)c(CN2CC(c3ccncc3)C2)c1 | 0 | -3
CCOCCn1c(=O)c2c(nc3n(Cc4ccco4)c(C)cn23)n(C)c1=O | 12 | 6
O=C(COCc1ccccc1)Nc1cccc(C2SCC(=O)N2c2ccc(C(F)(F)F)cc2)c1 (stereo unspecified) | -1 | 2
Cc1ccc(Sc2nsc(N)n2)cc1 | 7 | 6
CCOC(=O)c1c(C)[nH]c(C(=O)O)c1C | -2&3 | -1&4
CCCCCOc1ccc(C(=O)N(CCOC)CCOC)cc1OCCCCC | -9 | -14
COc1cccc(CCNC(=O)C2CC=CCC2C(=O)N2CCC(C#N)(c3ccccc3)CC2)c1 (stereo unspecified) | -9 | -14
CS(=O)(=O)N1CCN(C(=O)c2[nH]c3ccc(Cl)cc3c2Cl)CC1 | -6 | -6
CN1CCN(Cc2n[nH]c(=O)n2Cc2ccc(Cl)cc2)CC1 | 1 | 0
CCCc1nnc(NC(=O)Cn2ccccc2=O)s1 | 4 | 9
CC1(C)CN(C(=O)CCc2ccccc2)CC(=O)N(CC(O)Cn2cccc2)C1 (stereo unspecified) | 3 | 4
Cc1cccc(N2C(=O)c3cccc4c(N)ccc(c34)C2=O)c1 | 77 | 39
Cn1c(=NC(=O)Cc2ccccc2)sc2cc(F)cc(F)c21 | 0 | 1
CN(Cc1ccc(C(N)=O)cc1)c1cccc(F)c1C#N | -3&4 | -5&3
O=C(O)c1ccccc1NC(=O)c1c2c(n3ccccc13)C(=O)c1ccccc1C2=O | -8 | -10
NC(=O)C1CCN(CC(=O)Nc2oc3ccccc3c(=O)c2-c2ccc(Cl)cc2)CC1 | 6 | 3
Cc1ccc(S(=O)(=O)NCCc2csc3nc(-c4cccs4)nn23)s1 | -3 | -4
COc1cc(OC)c(N2CC(C(=O)Nc3ccc(N4CCCC4=O)c(C)c3)CC2=O)cc1Cl (stereo unspecified) | -1 | 5
Cc1csc(NC(=O)c2ccc(=O)[nH]n2)n1 | 6 | 12
CCOC(=O)N1CCN(Cc2nnc(-c3ccc(Cl)cc3)o2)CC1 | 2 | -3
Cc1nc(-n2ncc(C#N)c2N)c2c3c(sc2n1)CCC3 | -7 | -13
CC(=O)Nc1ccc(-c2csc(NC(=O)c3cnc(C)cn3)n2)cc1 | 3 | 0
O=C(/C=C/c1cnc2ccccc2n1)N1CCC(Nc2ccccc2)C1 (stereo unspecified) | 1 | -1
COc1ccccc1N1CCN(c2nc(C)nc3sc4c(c23)CCCC4)CC1 | -5 | -11
Cc1cc(OCC(=O)NCc2ccc(CN3CCOCC3)cc2)ccc1Cl | 6 | 0
Cc1ccc(CC(=O)Nc2nnc(CSc3ccccc3)o2)cc1C | 2 | 4
CCc1ccc[n+](C2=C(c3c(C)[nH]n(-c4ccc(F)cc4)c3=O)C(=O)N(CC(C)C)C2=O)c1 | -1 | 0
Cc1cccc(NC(=O)CSc2nc(=O)n3ccc(C)cc3n2)c1 | 1 | -1
COc1ccc(S(=O)(=O)Nc2ccc(Cl)cc2Cl)cc1OC | 17 | 7
C=CCOC1CCCN(C(=O)CCc2ccccc2)C1 (stereo unspecified) | -9 | -4

Reprinted from the results shown, two compounds:
SMILES | NPYLR7 ag | NPYLR7 ag max-min
COc1ccc(S(=O)(=O)Nc2ccc(Cl)cc2Cl)cc1OC | 17 | 7
C=CCOC1CCCN(C(=O)CCc2ccccc2)C1 (stereo unspecified) | -9 | -4

Next section:
SMILES | NPYLR7 ag | NPYLR7 ag max-min
CC1CC1C(=O)Nc1nnc(Cc2ccccc2)s1 (stereo unspecified) | 20 | 15
Cc1ccc2c(Cl)cc(Cl)c(OCC(=O)N(Cc3ccco3)C3CCS(=O)(=O)C3)c2n1 (stereo unspecified) | -1 | 23
CCOC(=O)C12CCC(O)CC1CCN(Cc1ccccc1)C2 (stereo unspecified) | 4 | 7
CCC(C)NC(=O)c1cc(NC(=O)Nc2c(Cl)cccc2Cl)ccc1N1CCN(c2ccccc2OC)CC1 (stereo unspecified) | -4 | 6
Cn1ncc(Oc2cccc(Cl)c2)c(Nc2ccc(C(=O)NCc3cccnc3)cc2)c1=O | -3 | 0
COCCn1cc(C(=O)NCc2ccc(F)cc2)c2nn(-c3ccccc3)c(=O)c-2c1 | 5 | 5
Cc1ccsc1CN(Cc1ccc2c(c1)OCO2)C(=O)CN(CCN1CCCC1)C(=O)Nc1cccc(F)c1 | -4 | -11
O=C(Nc1c(C(=O)c2ccc3c(c2)OCO3)oc2ccccc12)c1ccco1 | 7 | 15
O=C(c1ccc(Cl)cc1)N1CCN(c2nc3ccccc3nc2-c2ccccc2)CC1 | 7 | 2
Cc1cc(C)nc(SCc2cc(=O)c(OC(=O)c3ccc(C)c(C)c3)co2)n1 | -22 | -18
CN1C(=O)c2ccccc2C1O (stereo unspecified) | 7 | 9
O=C1OCC2(CCN(Cc3cc4n(n3)CCNC4)CC2)O1 | 4 | 4
O=C1C2C3C=CC(C2C(=O)N1c1nccs1)C1C(=O)N(c2nccs2)C(=O)C31 (stereo unspecified) | 0 | -4
Cc1ccc(Cl)c2sc(N(CCN(C)C)C(=O)c3cccc(S(C)(=O)=O)c3)nc12 | 0 | -3
CC(C)Nc1ncccc1C(=O)N1CCc2ccccc2C1 | -10 | -16
CCc1cc(NC(=O)C2(c3ccccc3)CC2)n[nH]1 | 18 | 14
CC1=C(C(=O)O)N2C(=O)[C@@H](NC(=O)[C@H](N)c3ccccc3)[C@H]2SC1 | -13&-1 | -15&-5
Cc1nnc(SCC(=O)N(CC(C)C)C2CCS(=O)(=O)C2)s1 (stereo unspecified) | -2 | -4
CC(C)N(CC(=O)N1c2ccccc2-n2cccc2C1c1cccc(Cl)c1)C(=O)C1C[C@H]1c1ccccc1 (stereo partly specified) | 4 | 12
COc1cc(=O)n(-c2ccc(C)cc2)nc1C(=O)N(C)C1CCN(C)CC1 | 8 | 1
N#CCCCn1c(-c2nonc2N)nc2ccccc21 | 7 | 5
COc1ccc(-n2c(SCc3ccc(C(=O)N4CCN(C)CC4)cc3)nnc2-c2cccs2)cc1 | 8 | 13
Cn1cc(S(=O)(=O)NCCc2nc3ccccc3s2)cn1 | -4 | -5
CN(C(=O)CCNC(=O)c1ccc(Cl)cc1)S(=O)(=O)c1cccs1 | 5 | 4
Cc1ccc(-c2cc(C(=O)N3CCOCC3)n3nc(C(C)(C)C)cc3n2)cc1 | 14 | 8
CNC(=O)NC(=O)C(c1ccccc1)N(C)Cc1ccccc1 (stereo unspecified) | 10 | 10
CC1=C(C(=O)OC(C)C)C(c2ccc(N(C)C)cc2)C2=C(CC(c3ccc(Cl)cc3)CC2=O)N1 (stereo unspecified) | 2 | 5
CCn1nc(C)c(C(=O)NCc2ccc(-n3ccnc3C)cc2)c1C | 20 | 11
Cc1ccc(Nc2cc(C)nc(N3CCN(C(=O)c4cccc(C)c4)CC3)n2)cc1 | 4 | 0
Cc1ccc(OCC(=O)N2CCC(n3cc(CCO)nn3)CC2)cc1C | -5 | -12
Cc1ccc(S(=O)(=O)N2CCN=C2SCc2ccc([N+](=O)[O-])cc2)cc1 | 7 | 8
CCOC(=O)Cn1c(=NC(=O)c2ccc(C)c(C)c2)sc2cc(S(N)(=O)=O)ccc21 | 1 | 0
Cc1cccc(Nc2ncccc2C(=O)NC(c2ccc(S(C)(=O)=O)cc2)c2cccc(N(C)C)c2)c1C (stereo unspecified) | -1 | -9
O=S(=O)(NCCS(=O)(=O)N1CCCC1)NCc1ccccc1 | 4 | 2
CCOCCn1ccc2c(NC(=O)COC)c(OC(=O)N(CC)CC)ccc21 | 0 | 5
COc1ccc(C(=O)C2CCCN(Cc3nc4ccccc4s3)C2)cc1OC (stereo unspecified) | 16 | 1
CC(C)c1n[nH]c(C2CN(C(=O)C3CC3c3cccnc3)CCO2)n1 (stereo unspecified) | 1 | 2
Cc1ccc(C2=NN(C(=O)CN3CCCCC3)C(c3ccccc3Cl)C2)cc1C (stereo unspecified) | 12 | 8
COCCCn1ccc(NC(=O)NCc2ccc(F)c(Cl)c2)n1 | 7 | 5
COc1ccccc1CC1(C)C(=O)Nc2cc(C(F)(F)F)ccc21 (stereo unspecified) | 5 | 2

An excerpt, so the mix of outcomes need not match the whole.
